# Compound activity (PubChem)
# SARS PLP yeast: blocks SARS-CoV papain-like protease in a yeast assay | S. cerevisiae expressing SARS-CoV PLpro, growth rescue; control for the full effect not named in the record | AID 485353 | Potency, µM (series often up to 32.9 µM), inactives show top-dose activity, positive = growth rescue | 0.19% of 330,000 active; active means well fitted rising curve with a large enough effect; inconclusive means small, poorly fitted or top-dose-only effect; inactive means no such curve, though single readings can be large or run the other way; note: 0% is about no effect; nearly all actives have a fitted effect of over 55% in size; growth read by luminescence after 48 h
# Marburg entry inh: Marburg virus entry inhibition; Marburg virus pseudotyped entry inhibition, cell reporter; control for the full effect not named in the record; about a third of the inactives were read at about 46 µM; Potency, µM (top dose mostly 37.8 µM), inactives show at the top dose activity change, negative = inhibition, usual class: inhibitors; 1.8% of 300,000 active; AID 540276; active = well fitted inhibition curve with a large enough effect; inconclusive = small, poorly fitted or top-dose-only effect, or effect the other way; inactive = flat fitted curve, though single readings scatter; tested in HEK293 cells; about a fifth of its hits are not listed in these tables; note: % is set by controls: 0 for no effect and ±100 for the full control effect; luciferase read-out
# Cruzain inh noDet: cruzain (T. cruzi) inhibition without detergent; P25779; purified cruzain, Z-FR-AMC fluorescence, no detergent; Potency, µM, for inactives: max response, negative = inhibition, hits mostly inhibitors; 2.3% of 200,000 active; AID 1476;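 note: plate controls were enzyme without inhibitor for no effect and buffer without enzyme for full effect; nearly all actives have a fitted effect of over 40% in size; top concentration of the series not given in the record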
# Target sequence (P25779 123-467 limits assumed): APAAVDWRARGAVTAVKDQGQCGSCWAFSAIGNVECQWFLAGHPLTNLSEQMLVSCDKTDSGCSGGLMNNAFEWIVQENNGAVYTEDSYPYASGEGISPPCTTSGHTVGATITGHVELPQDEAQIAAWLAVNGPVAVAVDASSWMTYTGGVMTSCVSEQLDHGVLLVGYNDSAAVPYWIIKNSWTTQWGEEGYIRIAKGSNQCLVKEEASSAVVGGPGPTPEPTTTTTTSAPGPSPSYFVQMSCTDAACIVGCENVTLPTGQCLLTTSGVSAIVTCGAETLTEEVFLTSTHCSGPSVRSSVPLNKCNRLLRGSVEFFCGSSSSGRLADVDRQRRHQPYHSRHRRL
#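 Purified cruzain at 1.5 nM, pre-incubated 15 min with compound at room temperature in 100 mM sodium acetate pH 5.5, 5 mM DTT, 0.00005% Triton X-100. Reaction started with 2 uM Z-FR-AMC; AMC fluorescence increase over 60 s gives rate.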
# NS1 inh: influenza NS1 inhibition | S. cerevisiae slowed by influenza A NS1, growth recovery by OD600 | Potency, µM (top dose mostly 46.1 µM), without a hit: at the top dose activity, positive = more growth | 0.4% of 270,000 active | AID 2326; active means well fitted rising curve with a large enough effect; inconclusive means small, poorly fitted or top-dose-only effect; inactive means no such curve, though single readings can be large or run the other way; note: nearly all actives have a fitted effect of over 50% in size
#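 Read-out: OD600 growth recovery of NS1-expressing budding yeast. Cells grown overnight at 30C in -URA glucose medium, washed, resuspended and diluted 1:100 in 2% galactose assay medium, pH 6.0. Same strain lacking NS1 served as positive control.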
# 2A StopGo: lowers the luciferase signal of an FMDV 2A StopGo reporter | human cells with a luciferase reporter of 2A StopGo recoding; control for the full effect not named in the record | Potency, µM (series often up to 57.9 µM), for the others: top-dose signal change, negative = less light | 1.2% of 410,000 active | AID 1159524; active = well fitted falling curve with a large enough effect; inconclusive = small, poorly fitted or top-dose-only effect; inactive = no such curve, though single readings can be large or run the other way; tested in HEK293T cells; note: % is set by controls: 0 for no effect and ±100 for the full control effect; nearly all actives have a fitted effect of over 45% in size; luciferase light after 4 h
# Cruzain Triton: blocks cruzain activity in presence of Triton detergent. Potency, µM, without a hit: max response, negative = inhibition, most hits filed as inhibitors. P25779. 0.43% of 200,000 active. purified cruzain, Z-FR-AMC fluorescence, 0.01% Triton;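 note: plate controls were neutral wells for no effect and buffer without enzyme for full effect; nearly all actives have a fitted effect of over 40% in size; top concentration of the series not given in the record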
#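 Z-FR-AMC hydrolysis (2 uM substrate) by cruzain (1.5 nM) monitored kinetically at ex 360/em 450 nm after 15 min room-temperature compound exposure; 0.01% Triton X-100, pH 5.5, 5 mM DTT.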
# LASV entry inh: blocks Lassa virus binding to or entry into cells | 1.2% of 300,000 active | AID 540256 | Potency, µM (top dose mostly 37.9 µM), for inactives: at the highest dose activity change, negative = inhibition, hits mostly inhibitors | Lassa virus pseudotype entry inhibition, cell reporter; control for the full effect not named in the record; active means well fitted inhibition curve with a large enough effect; inconclusive means small, poorly fitted or top-dose-only effect, or effect the other way; inactive means flat fitted curve, though single readings scatter; tested in HEK293 cells; note: % is set by controls: 0 for no effect and ±100 for the full control effect; nearly all actives have a fitted effect of over 50% in size; luciferase read-out
# RE007 growth inh: less growth of the S. pombe RE007 Vpr strain. S. pombe RE007 Vpr strain, BacTiter-Glo ATP luminescence, 24 h; control for the full effect not named in the record. Potency, µM (series often up to 92.2 µM), for inactives: at the top dose activity change, negative = less growth. 0.21% of 360,000 active; active = well fitted falling curve with a large enough effect; inconclusive = small, poorly fitted or top-dose-only effect; inactive = no such curve, though single readings can be large or run the other way;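 note: % is set by controls: 0 for no effect and ±100 for the full control effect; nearly all actives have a fitted effect of over 50% in size; the assay follows cell death caused by Vpr and the record does not say whether a fall means rescue or toxicity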
#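 Fission yeast RE007 carrying one integrated HIV-1 vpr copy, seeded at OD 0.01 in PMG+AL medium with 23 nL pinned compound. Grown 24 h at 30 degrees; viability read by BacTiter-Glo luminescence after 5 min.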
# The depositor's hits bear a star; u = inconclusive; x = no result given; [ ] = dose if it differs, or a comment. Unless noted, calls come from the whole dose curve; as a rule, active = well fitted curve in the direction sought with a large enough effect; inconclusive = small, poorly fitted or top-dose-only effect, or another doubt; inactive = no such curve, though single readings can be large; an effect the other way counts as inactive or inconclusive. Potency is the fitted concentration of half-maximal effect.
SMILES,SARS PLP yeast,Marburg entry inh,Cruzain inh noDet,NS1 inh,2A StopGo,Cruzain Triton,LASV entry inh,RE007 growth inh
COc1ccc(NC(=O)CSc2nnc(-c3ccccc3C)n2C)cc1,0%,-10%,-10%,2%,-15%,4.6%,25%,17%
Brc1ccc(-c2noc(C3CCCCC3)n2)cc1,0%,3%[46.1 µM],x,2%,37%[activator],x,13%,-7%
Cc1ccc(-c2noc(C3CCCN(C(=O)c4ccccc4Br)C3)n2)cc1 (configuration not stated),-7%,x,x,-22%,5%,x,x,18%
OC1(c2ccc(Cl)cc2)CN(c2ccccc2)C2=[N+]1CCS2 (configuration not stated),3%,u,x,x,-30%,x,-21%,1%
CCOC(=O)c1[nH]c2ccccc2c1CCCN1C(=O)c2ccccc2C1=O,-3%,-3%,9%,6%,u,-0.1%,-11%,-4%
CC(C(=O)NCc1ccccc1)N(CCN1CCOCC1)C(=O)c1snc(C(N)=O)c1N (configuration not stated),2%,5%,-11%,-12%,x,0.0%,x,x
Cc1nn(CCO)c(C)c1Oc1ccccc1O,0%,7%,6%,6%,0%,2.8%,-3%,12%
O=C(Cc1c(Cl)cccc1Cl)Nc1ccncc1Cl,0%,x,x,-2%,u,x,x,4%
COCCNC(=O)c1ccc(NS(=O)(=O)c2ccc3[nH]c(=O)[nH]c3c2)cc1,6%,0%,x,8%,-23%,x,1%,0%
Cc1nn(CCCC(=O)NCc2ccccc2Cl)c(=O)c2nccn12,-5%,x,x,-12%,-6%,x,x,-1%
Nc1cccc(CCc2nc3cc4ccccc4cc3[nH]2)c1,3%,u,-14%,10%,36%[activator],-12%,u,6%
Cc1nn(C)c(C)c1/C=C1/CC2C3CC=C4CC(O)CCC4(C)C3CCC2(C)C1=O (configuration not stated),13µM*,1%,u,-15%,-24%,-6.6%,27%,23%
CC1=C(C(=O)OCC(Br)(Br)Br)C(c2ccc(Br)cc2)NC(=O)N1CCCC(=O)O (configuration not stated),4%,6%,20%,-8%,x,-9.9%,-13%,x
CC(=O)n1cc(N(C(=O)CCl)c2ccc(Cl)cc2)c2ccccc21,-4%,x,x,-78%,11µM*,x,x,u
CCc1nnc(SCC(=O)Nc2nccs2)n1CC,-7%,x,x,16%,-11%,x,x,2%
CC(=O)Cc1nsc(Nc2ccc(F)cc2)n1,1%,20%[46.1 µM],x,x,0%,x,0%,-20%
CCNC(=O)NC(=O)CSc1cccc(C(F)(F)F)c1,-3%,-9%,-4%,-11%,-13%,0.6%,-11%,-12%
COc1ccc2cc(Br)ccc2c1CC(=O)N1CCCC1,-1%,-4%,x,-11%,-24%,x,1%,-3%
CCN1CCN(c2ccc(NC(=O)COc3ccc([N+](=O)[O-])cc3)cc2)CC1,-8%,1%,x,-1%,-14%,x,11%,3%
CC(C)(C)c1nnc(NC(=O)C2CCN(c3ncccn3)CC2)s1,0%,13%,8%,4%,7%,-0.2%,-2%,6%
CC(=O)Nc1cc2c(nc1C)nc(C)n2Cc1ccc(Br)cc1,-3%,2%[46.1 µM],-3%,-2%,-24%,2.2%,-12%,-16%
CC(C)Cn1c(SCC(=O)NC(=O)Nc2ccc3c(c2)OCCO3)nc2ccccc2c1=O,2%,-22%,-5%,-9%,x,2.7%,u,8%
CCc1sc(NC(=O)COC)nc1-c1ccccc1,-2%,u,-3%,-64%,4%,0.6%,16%,-5%
C=CCn1c(SCC(=O)NC23CC4CC(CC(C4)C2)C3)nc2cc(C(=O)O)ccc2c1=O,3%,-19%,x,x,1%,x,-11%,7%
C=CCN(C(=O)CNC(=O)c1ccco1)C(C(=O)NC1CCCCC1)c1ccccc1 (configuration not stated),-1%,u,-2%,-6%,-11%,-1.3%,10%,4%

# Later entries:
SMILES,SARS PLP yeast,Marburg entry inh,Cruzain inh noDet,NS1 inh,2A StopGo,Cruzain Triton,LASV entry inh,RE007 growth inh
COc1ccc(NC(=S)N2CCN(CCN=CC3=C(O)CC(c4ccccc4)CC3=O)CC2)cc1 (configuration not stated),-23%,u,u,11%,-21%,-0.6%,-12%,-6%
Cc1ccc(C2(C)NC(=O)N(CC(=O)NCc3ccccc3Cl)C2=O)cc1 (configuration not stated),-1%,u,x,-2%,4%,x,-9%,0%
O=C(NC1CCCCC1)c1cccc(N2C(=O)CCC2=O)c1,1%,-11%[46.1 µM],x,x,-16%,x,18%,13%
Cn1nnc(NC(=O)c2cccc([N+](=O)[O-])c2)n1,-2%,x,x,-3%,-3%,x,x,-1%
Cc1cc(C)n(CCCC(=O)O)n1,0%,u,x,2%,5%,x,u,12%
COC(=O)c1ccc(C(=O)OC)c(NC(=O)CN2CCN(c3ccccc3OC)CC2)c1,5%,0%,u,-25%,u,-4.1%,u,3%
Brc1ccc(OCCOCCOc2cccc3cccnc23)cc1,x,u,x,x,-17%,x,-11%,6%
Cc1ccc(Nc2c(C(C)C)c(C)c(C#N)c3nc4ccccc4n23)cc1,x,-15%[46.1 µM],-20%,x,u,-9.8%,-11%[46.1 µM],x
CCCCC(CC)CNC(=O)CN1C(=O)NC2(CCc3ccccc32)C1=O (configuration not stated),2%,u,x,7%,-17%,x,x,-19%
COc1cc(C(=O)NCCNC(=O)c2cnccn2)cc(OC)c1OC,0%,4%[46.1 µM],x,7%,-6%,x,-1%,22%
CC(C)c1ccc(N2C(=O)CC(Sc3nc4ccccc4o3)C2=O)cc1 (configuration not stated),-26%,u,u,-5%,25%,-1.0%,13%,-18%
CC(Oc1ccc2c3c(c(=O)oc2c1)CCC3)C(=O)NCCCn1ccnc1 (configuration not stated),0%,x,x,7%,-7%,x,x,3%
CCOc1ccc(S(=O)(=O)N2CCC(c3ccncc3)CC2)cc1,x,x,6%,x,-22%,3.7%,-12%[46.1 µM],x
COc1cccc(CNC(=O)Cc2ccc(NC(=O)N3CCCCc4ccccc43)cc2)c1OC,x,x,12%,x,-2%,-3.5%,-21%[46.1 µM],x
O=c1cc(-c2ccccc2Cl)oc2c(NS(=O)(=O)c3ccccc3OC(F)(F)F)ccc(O)c12,-1%,x,x,-3%,9%,x,-2%[46.1 µM],-23%
Cc1ccc(OCC(=O)Nc2sc3c(c2C#N)CCC3)cc1,-5%,7%,-4%,-45%,x,-7.8%,-1%,1%
COc1cccc(CC(=O)Nc2nccs2)c1,4%,0%,11%,-5%,7%,1.0%,14%,-2%
CCOC(=O)C1CCCN(C(=O)Cn2nc(CC)n3c(cc4occc43)c2=O)C1 (configuration not stated),x,8%[46.1 µM],5%,x,u,-4.6%,-6%[46.1 µM],x
COc1ccc(Cl)cc1N(C(C)C(=O)NC1CCCC1)S(C)(=O)=O (configuration not stated),1%,-13%[46.1 µM],x,1%,-8%,x,-3%[46.1 µM],-1%
CC(=O)Nc1ccc(NC(=O)CN(c2ccc(C(C)C)cc2)S(=O)(=O)c2ccccc2)cc1,-1%,x,x,7%,0%,x,x,2%
COc1cccc(/C=N/NC(=O)c2ccc(-c3ccccc3)cc2)c1O,u,3.2µM*,16µM*,12%,-27%,1.0%,5.6µM*,32%
Cc1cc(C(=O)NCc2ccco2)no1,4%,3%,2%,-2%,3%,1.3%,-1%,-9%
O=C(Nc1nccs1)c1ccccc1[N+](=O)[O-],13%,0%,-6%,-1%,-4%,7.7%,0%,-1%
COCCn1nnnc1C(c1ccccn1)N1CCN(c2cc(C)ccc2C)CC1 (configuration not stated),0%,u,u,-12%,x,-0.4%,u,0%
CCOc1ccc(OCC)c(NC(=O)C2CCCN(S(=O)(=O)c3cnc[nH]3)C2)c1 (configuration not stated),4%,x,10%,2%,-24%,-0.9%,x,-1%

# A second format for 5 compounds above:
SMILES | SARS PLP yeast | Marburg entry inh | Cruzain inh noDet | NS1 inh | 2A StopGo | Cruzain Triton | LASV entry inh | RE007 growth inh
CC(Oc1ccc2c3c(c(=O)oc2c1)CCC3)C(=O)NCCCn1ccnc1 (configuration not stated) | 0% | x | x | 7% | -7% | x | x | 3%
CCOc1ccc(S(=O)(=O)N2CCC(c3ccncc3)CC2)cc1 | x | x | 6% | x | -22% | 3.7% | -12%[46.1 µM] | x
COc1cccc(CNC(=O)Cc2ccc(NC(=O)N3CCCCc4ccccc43)cc2)c1OC | x | x | 12% | x | -2% | -3.5% | -21%[46.1 µM] | x
O=c1cc(-c2ccccc2Cl)oc2c(NS(=O)(=O)c3ccccc3OC(F)(F)F)ccc(O)c12 | -1% | x | x | -3% | 9% | x | -2%[46.1 µM] | -23%
Cc1ccc(OCC(=O)Nc2sc3c(c2C#N)CCC3)cc1 | -5% | 7% | -4% | -45% | x | -7.8% | -1% | 1%

# Entries from the list above that contain a CF3 group:
SMILES,SARS PLP yeast,Marburg entry inh,Cruzain inh noDet,NS1 inh,2A StopGo,Cruzain Triton,LASV entry inh,RE007 growth inh
CCNC(=O)NC(=O)CSc1cccc(C(F)(F)F)c1,-3%,-9%,-4%,-11%,-13%,0.6%,-11%,-12%
O=c1cc(-c2ccccc2Cl)oc2c(NS(=O)(=O)c3ccccc3OC(F)(F)F)ccc(O)c12,-1%,x,x,-3%,9%,x,-2%[46.1 µM],-23%

# More structures
SMILES,SARS PLP yeast,Marburg entry inh,Cruzain inh noDet,NS1 inh,2A StopGo,Cruzain Triton,LASV entry inh,RE007 growth inh
COC(=O)Cn1cc(/C=N/NC(=O)COc2cccc3cccnc23)c2ccccc21,20%,-2%,7%,1%,-14%,-3.7%,1%,11%
Cc1cc(NC(=O)Cc2cccs2)no1,3%,29%,-28%,u,7%,-18%,0%,-3%
O=C1CCC(=O)N1CCOP1(=O)COc2ccccc2OC1,2%,-5%[46.1 µM],-1%,u,6%,5.4%,9%,-6%
O=C(C1CCN(S(=O)(=O)c2ccccc2)CC1)N(CCc1ccccc1)Cc1ccco1,0%,u,2%,-7%,u,-7.4%,u,5%
O=C(Nc1cccc([N+](=O)[O-])c1)c1ccn[nH]1,-9%,-25%[46.1 µM],x,x,53%[activator],x,0%,10%
Cc1nc(NC(=O)c2ccccc2)sc1-c1csc(Nc2ccc(Cl)cc2)n1,-9%,x,4µM*,5µM*,x,6.6%,x,x
